# hNpr1 antagonist – human Npr1 receptor antagonism | P16066 | HEK293 hNpr1 GloSensor cGMP, ANP-stimulated luminescence | Potency, µM (highest dose often 46.3 µM), for inactives: at the top dose activity change, negative = inhibition, most hits filed as inhibitors | actives 1.6% (n = 76,000) | AID 1347048; active = well fitted inhibition curve with a large enough effect; inconclusive = small, poorly fitted or top-dose-only effect; inactive = no such curve, though single readings can be large or run the other way;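 further: nearly all actives have a fitted effect of over 60% in size; nearly all hits also lower the signal before the agonist is added; a reference antagonist and vehicle were the controls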
# Target sequence (P16066 whole entry, looked up): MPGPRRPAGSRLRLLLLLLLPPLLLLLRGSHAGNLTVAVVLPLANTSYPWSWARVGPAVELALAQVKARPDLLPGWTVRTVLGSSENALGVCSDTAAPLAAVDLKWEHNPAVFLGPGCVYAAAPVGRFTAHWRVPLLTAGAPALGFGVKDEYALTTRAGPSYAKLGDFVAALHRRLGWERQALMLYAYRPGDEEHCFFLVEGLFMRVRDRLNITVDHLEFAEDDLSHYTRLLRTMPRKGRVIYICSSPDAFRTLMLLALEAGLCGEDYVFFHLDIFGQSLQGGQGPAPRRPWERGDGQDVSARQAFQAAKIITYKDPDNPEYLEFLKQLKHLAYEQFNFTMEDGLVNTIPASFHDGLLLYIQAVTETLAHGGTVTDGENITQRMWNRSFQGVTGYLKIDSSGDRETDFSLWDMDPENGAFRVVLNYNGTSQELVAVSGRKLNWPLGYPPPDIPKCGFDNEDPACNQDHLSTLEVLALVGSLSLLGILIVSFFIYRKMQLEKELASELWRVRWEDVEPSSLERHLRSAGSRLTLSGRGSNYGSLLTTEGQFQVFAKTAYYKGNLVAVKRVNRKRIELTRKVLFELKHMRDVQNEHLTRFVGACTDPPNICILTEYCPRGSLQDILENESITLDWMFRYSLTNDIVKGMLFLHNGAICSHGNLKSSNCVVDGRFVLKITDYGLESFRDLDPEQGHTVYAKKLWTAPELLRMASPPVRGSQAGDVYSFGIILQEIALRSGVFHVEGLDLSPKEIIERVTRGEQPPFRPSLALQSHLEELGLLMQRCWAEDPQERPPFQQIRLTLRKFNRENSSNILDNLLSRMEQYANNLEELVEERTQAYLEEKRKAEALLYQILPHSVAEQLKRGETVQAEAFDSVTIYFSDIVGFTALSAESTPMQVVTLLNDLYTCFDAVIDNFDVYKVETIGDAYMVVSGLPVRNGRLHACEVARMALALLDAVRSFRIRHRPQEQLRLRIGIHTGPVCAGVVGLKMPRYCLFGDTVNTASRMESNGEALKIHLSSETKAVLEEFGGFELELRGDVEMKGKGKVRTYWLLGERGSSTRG
#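 HEK293 cells stably expressing human Npr1 and cGMP GloSensor pGS-40F, loaded 2 h with 2% GloSensor reagent, given compound 30 min at room temperature. Luminescence read before and 20 min after 0.1 nM hNppA.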
# Starred values were filed as active, the others as inactive; ? = inconclusive; [ ] = remark or other dose. On the % scale 0 is the no-effect control and ±100 the full control effect; potency means the concentration at half of the fitted maximal effect.
hNpr1 antagonist	compound
5.4%	CO[C@H]1C(=O)N(C2CCN(Cc3ccc(C)s3)CC2)[C@H]1c1ccncc1
5.7%[70.6 µM]	COc1ccc(CN2CCC(O)(c3csc(CN4CC[C@@H](O)C4)n3)CC2)cc1
-11.8%	CCc1csc(CNC2CCC3(CCNCC3)CC2)n1
3.2%	Cc1cc(C)n(Cc2ccc(C(=O)N3CCC4(CC3)CCC(O)(CN(C)C)CC4)o2)n1
0.2%	COCC1CN(C)CC12CCN(Cc1cnn(C(C)C)c1)CC2 (centres undefined)
2.7%[70.6 µM]	CN1CCN(C(=O)[C@@H]2CCC[C@@H](NCC3CC3)CN(C)C(=O)C2)CC1
5.5%	COCCc1noc([C@@H]2CN(Cc3ccccc3C#N)C[C@H]2CO)n1
0.5%[70.6 µM]	CN1CCC2(C1)CN(CC1CC1)c1ccc(C(=O)NC3CCCCC3)cc12 (centres undefined)
2.8%	CN1CC2(CCN(C(=O)c3cccnc3)CC2)CC1C(=O)N1CCOCC1 (centres undefined)
0.0%	CCn1ncc(C(=O)N2C[C@@H](COC)[C@H](c3nc(C4CC4)no3)C2)c1C
-0.4%	Cc1nc(-c2ccccc2OC2CN(S(=O)(=O)c3c(C)noc3C)C2)no1
-8.2%	CC(C)NC(=O)N[C@H]1CCN2C(=O)c3cc(-c4cccc(C(F)(F)F)c4)ccc3NC(=O)[C@H]12
20.3%	Cc1cn2nc(C(=O)N3CCC(NC(=O)CCC4CCCC4)CC3)cc2c(=O)[nH]1
0.0%	COc1ccc(-c2cc(N3CCCN(C(=O)c4ccc(Cl)cc4)CC3)n[nH]2)cc1
-12.2%	CC(C)CN1C(=O)c2cccn2CC1CNC(=O)Cc1cccc(F)c1 (centres undefined)
2.4%[70.6 µM]	CCC(CC)C(=O)NC[C@H]1O[C@@H](CC(=O)NC(C)C)[C@H](O)[C@@H]1O
4.6%	CCCCCNc1ncnc2c1CN(c1ccc(OC)cc1)C(=O)CN2C
2.8%[70.6 µM]	O=C(NC[C@H]1OC[C@@H](NCc2cccs2)[C@@H]1O)Nc1ccccc1
-16.4%	Cc1nn(-c2ccc(C(F)(F)F)cc2)c(C)c1[C@@H]1C=C[C@@H](NCc2ccc(N(C)C)cc2)C1
8.9%	COCC1CN(C(C)=O)CC12CCN(C(=O)c1ccc(OC)nc1OC)CC2 (centres undefined)

hNpr1 antagonist	compound
-3.7%	Cc1ccccc1-n1nc(C)c(CCC(=O)NCC(C)C)c1Oc1cccc(F)c1
-0.8%	O=C(NCC(=O)N1CCN(c2ccccn2)CC1)c1cncc(Br)c1
-1.3%[70.6 µM]	Cc1cc2c(-c3cccc(OC(C)C)c3)nc(-c3c(C)noc3C)cc2[nH]1
5.7%	O=C(C1CCOCC1)N1CC2CC(C1)[C@H]1CCCC(=O)N1C2 (some centres undefined)
-20.0%[70.6 µM]	COc1cccc(NC(=O)C2(C)COCc3cnc(Nc4ccccc4)nc32)c1 (centres undefined)
-2.9%	O=C(c1ccc(F)cc1)N1CCN(c2nnc3ccccn23)CC1
-3.3%	COc1ccc(C(=O)N2CCC3(CC2)NCCc2c3[nH]c3ccccc23)c(OC)c1
-11.0%[70.6 µM]	Cc1cc2c(-c3ccccc3F)nc(-c3c(C)noc3C)cc2[nH]1
2.3%	CCn1nc(C)cc1S(=O)(=O)N1CCC2(CC1)NC(=O)CC2C(=O)O (centres undefined)
-27.0%	CC(C)n1cc2cc(C(=O)N3CCN(c4ccc(F)cc4)CC3)sc2c1
4.7%[70.6 µM]	COC(=O)[C@@H]1Cc2ncn(Cc3ccc(OC)cc3)c2CN1C(=O)c1ccc(C#N)cc1
-7.4%	Cc1ccccc1CNC(=O)CCc1ccnc(N2CCOCC2)c1
3.6%	O=C(Cc1ccc2c(c1)OCO2)N1CCc2onc(-c3cccc(F)c3)c2C1
-2.1%[70.6 µM]	CC1(CNc2ccccc2)COc2ccc(C(=O)NCc3cccs3)cc2N1 (centres undefined)
-3.7%[70.6 µM]	O=C(NCC1CN(C(=O)Cc2ccccc2)CC12CN(c1ccccc1)C2)C1CC1 (centres undefined)
?	O=C(CC1CCCCC1)N1CCCC(c2noc(COc3ccccc3)n2)C1 (centres undefined)
-24.4%	COc1ccc(C(=O)NC2CCN(c3cc(-c4ccc(F)cc4)[nH]n3)CC2)cc1F
-7.1%	CNC(=O)[C@@H]1CN(C(=O)c2cc(F)cc(F)c2)C[C@H]1COC
2.6%	Cc1ccc(C)c(CN2C(=O)NC3(CCN(C(=O)c4ccc[nH]c4=O)CC3)C2=O)c1
4.8%	O=C1CCCN1CCCN1C(=O)[C@H]2CN(Cc3cccc(OC(F)(F)F)c3)C[C@H]2C1=O

hNpr1 antagonist	compound
0.0%	COc1ccc(-c2cc(N3CCC(NC(=O)c4ccc(C)c(C)c4)CC3)n[nH]2)cc1
2.5%	Cc1ncccc1C(=O)N1CCCN(C(=O)C2CC2)C(c2ccccc2)CC(=O)NCC1 (centres undefined)
2.5%	Cc1ccc(S(=O)(=O)N2CCOC3(CNCCOC3)C2)cc1F (centres undefined)
-6.7%	CCCN(C)c1nccnc1OC1CCN(C(=O)c2ccoc2)C1 (centres undefined)
-1.1%	CCN1CCN(C(=O)C2Cn3cccc3C(=O)N2)CC1 (centres undefined)
0.0%	Cc1nc(CCNS(=O)(=O)c2ccc(Cl)cc2)no1
-7.0%	CO[C@H]1[C@H](NC(=O)c2cc(C)ccc2C)c2ccccc2C12CCNCC2
2.6%	O=C1CCN(C(=O)c2ccccc2)CCCC(C(=O)NCCCN2CCCc3ccccc32)CCN1 (centres undefined)
7.9%	CCOc1ccc(NC(=O)Cn2c(C)cc3nc4n(c(=O)c32)CCCCC4)cc1
?	COc1ccc(-c2cc3[nH]ccc3c(C(=O)NCc3c(C)cc(C)[nH]c3=O)n2)cc1
?	O=C(Nc1ccc(Cl)c(Cl)c1)c1cc2n(n1)CC(c1ccc(Cl)cc1)OC2 (centres undefined)
-0.1%	O=C(CC[C@H]1NC(=O)c2ccccc2NC1=O)NCCc1ccncc1
0.7%	COCCN1C(=O)c2ccccc2C(C(=O)Nc2cccc(C)n2)C12CCCCC2 (centres undefined)
-10.6%	CC(C)Oc1ccc(CNC(=O)C2CCCN(c3cnn(C)c(=O)c3)C2)cc1 (centres undefined)
11.7%	CCc1n[nH]c(CC2CCN(C(=O)c3ccnn3CC)CC2)n1
23.1%[70.6 µM]	CN(Cc1ccccc1C(F)(F)F)C(=O)Cc1ccc(F)cc1
-0.1%	CCOc1ccccc1NC(=O)N1CC(C(=O)N(C)C)C2(CCOCC2)C1 (centres undefined)
-16.1%	COc1ccc(CC(=O)N[C@H]2C[C@@H](c3nc(-c4ccc5ccccc5c4)no3)N(C)C2)cc1
-18.7%	O=C(Cc1cccnc1)N1CCCC(Cc2noc(-c3ccccc3)n2)C1 (centres undefined)
4.4%	CN(Cc1cccnc1)c1nc2c(c(=O)[nH]1)CCN(Cc1cccc(F)c1)CC2

# Another view of part of the listing above:
CCOc1ccccc1NC(=O)N1CC(C(=O)N(C)C)C2(CCOCC2)C1 (centres undefined)
- hNpr1 antagonist: -0.1%

COc1ccc(CC(=O)N[C@H]2C[C@@H](c3nc(-c4ccc5ccccc5c4)no3)N(C)C2)cc1
- hNpr1 antagonist: -16.1%

# Next structures follow:
hNpr1 antagonist	compound
-2.1%	Cc1nnc([C@@H]2CC(F)(F)CN2C(=O)c2conc2C)o1
-2.5%	COc1cc2c(cc1C(=O)N1CCC3(CC(=O)NC3=O)C1)CCC2 (centres undefined)
2.3%	Cn1c(CN2CCC(O)CC2)nnc1C1CCCN(C(=O)CCN)C1 (centres undefined)
10.4%	CN(CCCN1CCCCCC1)c1nc(-c2ccncc2)nc2c1cnn2C
1.2%	COC1C(=O)N(C2CCN(C(=O)NCc3ccccc3)CC2)C12CCOCC2 (centres undefined)
-2.4%[70.6 µM]	CC(=O)N1CCN(C(=O)C[C@@H]2CCNC[C@@H]2Cc2cc(CN3CCOCC3)on2)CC1
3.7%	COc1ccc(CN2C[C@H](O)C[C@H]2c2nc(-c3ccc4c(c3)OCO4)no2)c(OC)c1OC
-1.7%	O=C(c1ccn[nH]1)N1CCC(c2nc(CCOCC3CCCC3)no2)C1 (centres undefined)
-6.6%	Cc1cc2nc3n(c(=O)c2n1CC(=O)Nc1cccc(C(C)C)c1)CCCC3
-7.1%	CC(=O)Nc1ccc(C2OC(=O)N(Cc3cccc(F)c3)C2C(=O)NCC2CCCO2)cc1 (centres undefined)
0.9%	COc1cccc(NC(=O)N2CCCC3(C2)Nc2cccnc2NC3=NC2CCCC2)c1 (centres undefined)
-4.7%	CCN1C(=O)C2(CCN(S(=O)(=O)c3cc(C)ccc3C)CC2)c2ccccc21
9.0%	CSCC(=O)N1CCC(C2CCN(S(C)(=O)=O)CC2)C1 (centres undefined)
6.7%	COc1ccccc1CC(=O)N1CCCc2ncc(C(=O)NCc3cccc(Cl)c3)cc21
0.3%	CC(=O)N1CC(CO)C2(CCN(Cc3ccc(C)o3)CC2)C1 (centres undefined)
0.7%	Cc1ccc(N2CCC(NC(=O)c3ccc(Br)cc3)C2=O)cc1 (centres undefined)
1.0%[70.6 µM]	COCC(=O)N[C@H]1CC[C@]2(C)CC[C@@H]([C@H](C)C(=O)N3CCOCC3)[C@H](O)[C@H]2[C@@H]1C
1.5%	COCC(=O)N1CCC2(CC1)CN(Cc1cnc(C(C)C)nc1)CCN2C
6.7%[70.6 µM]	COC[C@H]1C[C@@H](NC(=O)c2cc(C)oc2C)[C@H](O)[C@@H]1O
5.1%	CCCn1c(C)cnc1CC1CCCNC1 (centres undefined)

hNpr1 antagonist	compound
-2.9%[70.6 µM]	COCc1ccc2c(c1)c(OC(C)(C)C(=O)NC1CCOCC1)nn2Cc1cccnc1
-11.4%[70.6 µM]	O=C1COc2ccc(Nc3ccc(C(F)(F)F)cc3)nc2CN1
0.0%	Cc1cnc(CC2CCN(C(=O)C3CC3)CC2)n1Cc1ccccc1
0.3%[70.6 µM]	Cc1nnc(-c2cc(-c3ccc([S+](C)(=O)[O-])cc3)ccn2)n1CCN1CCOCC1
-0.2%	O=C(Cn1nc2c(cc1=O)CCCCC2)N1CCN(c2ccc(Cl)cc2)CC1
-3.8%	CC(C)(C)CNCC1(O)CCCN(Cc2cccc(F)c2F)C1=O (centres undefined)
-9.1%	COc1ccc(CNC(=O)C2(C)CCCCC(=O)N2)cc1OC (centres undefined)
1.4%[70.6 µM]	Cc1ccc(CN2CCC(N3CCCNC3=O)CC2)cc1
-30.4%	C[C@@H]1C(=O)O[C@H]2[C@H]1CC[C@@]1(C)Cc3sc(NC(=O)COc4ccccc4)nc3[C@@H](C)[C@H]21
-2.0%	CC(C)(C)CC(=O)N[C@H]1CC(C)(C)[C@@H]2C[C@@](C)(O)CC[C@]12CCC(=O)NCCc1c[nH]c2ccccc12
4.2%	C=CCNC(=O)CCc1ccc2c(c1)CN(C(=O)NCC)CCO2
1.7%	Cc1cc(CN2CCCC23CCN(c2nc4ccccc4o2)CC3)on1
6.1%	CCCN1CCN(C(=O)CC2CCCN(c3cnn(C)c(=O)c3)C2)CC1 (centres undefined)
1.0%	CCn1nccc1C(=O)N1CCC2(CCC2OC)CC1 (centres undefined)
10.0%[70.6 µM]	O=C(C[C@@H]1C[C@H]2O[C@H](CNC3CCC3)[C@@H](O)[C@H]2O1)N1CCC(F)(F)C1
0.0%	COc1ccc(C2(C(=O)N3CCC([C@H]4[C@@H](OC)C(=O)N4C(C)C)CC3)CC2)cc1
-3.0%	COc1ccc(CNC(=O)c2noc(-c3ccc(C)cc3)n2)c(OC)c1
9.2%	COCC[C@]1(O)CCN(C(=O)C2CCN(C3CCCC3)CC2)C[C@H]1C
-0.5%	COC[C@@H]1CN(c2ncccn2)C[C@H]1C(=O)NCc1c(C)n[nH]c1C
0.3%[70.6 µM]	CCCCn1cnc2cccnc21

# Sorted by the number under hNpr1 antagonist (largest number first): 5 of the compounds above
structure | hNpr1 antagonist
O=C(C1CCOCC1)N1CC2CC(C1)[C@H]1CCCC(=O)N1C2 (some centres undefined) | 5.7%
CCCCCNc1ncnc2c1CN(c1ccc(OC)cc1)C(=O)CN2C | 4.6%
COC1C(=O)N(C2CCN(C(=O)NCc3ccccc3)CC2)C12CCOCC2 (centres undefined) | 1.2%
CCn1nccc1C(=O)N1CCC2(CCC2OC)CC1 (centres undefined) | 1.0%
COc1cccc(NC(=O)N2CCCC3(C2)Nc2cccnc2NC3=NC2CCCC2)c1 (centres undefined) | 0.9%

# (listing goes on)
hNpr1 antagonist	compound
1.5%	NC1CCCN(Cc2cc(F)ccc2-n2cccn2)CC1 (centres undefined)
2.1%[70.6 µM]	CN1C[C@H](NCC2CC2)CCC[C@@H](C(=O)NC2CCOCC2)CC1=O
4.2%	CCc1noc([C@@H]2CC(F)(F)CN2C(=O)c2cnco2)n1
-0.9%	O=C(c1ccccc1-c1ccccc1)N1CCCn2cncc2C1
3.1%[70.6 µM]	COc1ccc(S(=O)(=O)N[C@H]2[C@H](O)[C@H](O)C[C@@H]2c2ccccc2C)cc1
0.4%	Cc1ccc(F)c(OCC(=O)c2ccc3c(c2)N(CCCC(=O)NCC2CCCO2)C(=O)CO3)c1 (centres undefined)
4.2%	COCC(=O)NC1CCC12CCN(C(=O)CC1CCCC1)CC2 (centres undefined)
-14.3%	Cc1ccc(C2Cn3cnc(C(=O)N4CCC(C(=O)NCc5cccc(Cl)c5)CC4)c3CO2)cc1 (centres undefined)
-5.2%[70.6 µM]	C[C@@H](NC(=O)C1CCCCC1)c1c(-c2ccc(Cl)cc2)noc1C(=O)O
4.6%	Cc1ccc(NC(=O)C2CCCN(C(=O)c3ccccc3)CCC(=O)NCC2)cc1 (centres undefined)
-1.1%	COc1ccc(NC(=O)CN2CCCc3nc(C4CC4)ncc3C2=O)cn1
5.4%	CN1CCCn2nc(C(=O)NC34CC5CC(CC(C5)C3)C4)cc2C1
0.6%	Cc1nc(N2CCCCC2)ncc1C(=O)N[C@H]1[C@H]2CCO[C@H]2[C@@H]1N(C)C

# Some of the compounds tested; count on the stated rates, not on these rows.
